From PubChem
miR-21 FLuc – qHTS Assay for Modulators of miRNAs and/orActivators of miR-21 | HeLa miR-21 FLuc reporter, luciferase, 48 h | Potency, µM (top dose mostly 38.3 µM), for inactives: at the highest dose reporter change, positive = more light | 340,000 tested, under 10 active | AID 2288, 2010; active = well fitted rising curve with a large enough effect; inconclusive = small, poorly fitted or top-dose-only effect; inactive = no such curve, though single readings can be large or run the other way;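 note: % of control where 0% means no effect; miR-21 action dims this reporter so a rising signal means less miR-21 action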
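Luminescence from a firefly luciferase reporter carrying a miR-21 binding site downstream, stably expressed under a CMV promoter in HeLa cells that make miR-21 endogenously, reports miRNA modulation after 48 h compound exposure up to approximately 40uM final.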
Rango complex inh – qHTS Assay for Inhibitors of Rango (Ran-regulated importin-beta cargo) - Importin beta complex formation; Importin subunit beta-1 (Homo sapiens), Q14974; Rango CFP/YFP FRET sensor + importin beta, 45 min; Potency, µM (top dose mostly 92.2 µM), without a hit: top-dose inhibition of complex formation; 0.031% of 340,000 active; active = rising FRET ratio curve, often small or poorly fitted; inconclusive = mostly compound fluorescence or quenching in the first reads; inactive = flat curves in all reads;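 note: potency is the fitted concentration of half-maximal effect; 0% = DMSO wells and 100% = buffer wells lacking importin beta; nearly all actives have a fitted effect of over 15% in size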
Target sequence (Q14974 whole entry, looked up): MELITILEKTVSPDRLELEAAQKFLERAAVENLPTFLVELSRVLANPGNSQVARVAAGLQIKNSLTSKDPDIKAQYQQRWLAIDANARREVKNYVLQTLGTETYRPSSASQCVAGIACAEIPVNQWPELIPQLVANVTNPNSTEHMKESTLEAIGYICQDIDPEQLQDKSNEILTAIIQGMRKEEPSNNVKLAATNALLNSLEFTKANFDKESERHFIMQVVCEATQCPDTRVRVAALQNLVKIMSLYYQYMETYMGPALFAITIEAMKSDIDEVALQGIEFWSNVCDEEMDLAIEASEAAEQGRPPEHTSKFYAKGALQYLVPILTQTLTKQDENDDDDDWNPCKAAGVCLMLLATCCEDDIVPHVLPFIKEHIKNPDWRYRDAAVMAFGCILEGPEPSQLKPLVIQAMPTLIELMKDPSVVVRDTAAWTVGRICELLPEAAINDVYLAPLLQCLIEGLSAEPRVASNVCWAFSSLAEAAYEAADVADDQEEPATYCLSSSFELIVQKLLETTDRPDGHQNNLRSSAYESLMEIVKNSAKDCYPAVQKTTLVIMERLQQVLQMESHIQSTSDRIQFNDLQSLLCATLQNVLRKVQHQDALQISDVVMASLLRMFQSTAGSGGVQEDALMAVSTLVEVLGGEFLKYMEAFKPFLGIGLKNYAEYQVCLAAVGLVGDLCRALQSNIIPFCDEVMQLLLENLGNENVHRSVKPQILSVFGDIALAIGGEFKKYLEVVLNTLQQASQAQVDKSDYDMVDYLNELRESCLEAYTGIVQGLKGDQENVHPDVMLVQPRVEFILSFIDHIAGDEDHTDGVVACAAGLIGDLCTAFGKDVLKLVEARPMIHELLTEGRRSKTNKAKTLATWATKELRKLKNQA
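FRET biosensor Rango (snurportin 1 IBB between N-terminal EYFP and C-terminal Cerulean), 50 nM in PBS/1 mM DTT/0.02% Tween-20/0.1% BSA, preincubated 5 min RT with compound; 0.125 microM importin beta added, 45 min RT, CFP/YFP FRET ratio read.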
GLA inh pH 4.5 – qHTS Assay for Inhibitors of Human alpha-Galactosidase at pH 4.5; purified enzyme, 4-MU-alpha-Gal fluorescence, pH 4.5; activity change, negative = inhibition, % at 105 µM; 230,000 tested, under 10 active; inconclusive = small, poorly fitted or top-dose-only inhibition, or a rising curve; inactive = flat fitted curve, though single readings scatter; no compound was filed as active;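 note: 0% = full activity with enzyme and -100% = basal without enzyme; dose as in the result columns while the protocol names 77 µM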
Rango dissoc inh – qHTS Assay for Inhibitors of RanGTP induced Rango (Ran-regulated importin-beta cargo) - Importin beta complex dissociation; Snurportin-1 (Homo sapiens) + GTP-binding nuclear protein Ran (Homo sapiens) + Importin …; Biochemical FRET Rango-importin beta, RanGTP-induced dissociation; Potency, µM (titrated, usually from 46.1 µM), without a hit: at the top dose activity change, negative = inhibition; 0.071% of 340,000 active; active means falling FRET ratio curve, often poorly fitted, with flat reads before Ran was added; inconclusive means other falling curves, or compound fluorescence or quenching; inactive means flat or rising ratio curve;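 note: potency is the fitted concentration of half-maximal effect; % of control where 0% means no effect; nearly all actives have a fitted effect of over 45% in size; -100% = wells without RanGTP and RCC1; the record marks most hits as doubtful in a second field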
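Recombinant Rango FRET biosensor (EYFP–snurportin 1 IBB–cerulean CFP10) at 0.1 uM premixed with 0.25 uM importin beta in PBS, 1 mM DTT, 0.02% Tween-20, 0.1% BSA. Compound added 5 min; RanGTP-RCC1 (0.6 uM Ran, 2 mM GTP, 0.2 uM RCC1) then triggers release, read at 45 min.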
* hit, by the source's call; ? = inconclusive; . = no result given; & = joins results of further samples. Only part of the results is shown; count on the stated rates, not on these rows.

SMILES	miR-21 FLuc	Rango complex inh	GLA inh pH 4.5	Rango dissoc inh
Cc1ccc(C)c(S(=O)(=O)N2CCCOC2CNC(=O)C(=O)NCCN2CCOCC2)c1 (stereo not given)	0%	-1.2%	.	3%
CC(=O)Nc1nc(COc2ccc3ccccc3c2)cs1	-14%	0.2%	-13	-3%
COc1ccc(OC)c(C2C(C(=O)c3ccc(C)o3)=C(O)C(=O)N2CCN2CCOCC2)c1 (stereo not given)	2%	-2.0%	.	-8%
Cc1cc(C)n(-c2ncc3c(n2)N(CCO)CCOC3=O)n1	2%	-2.7%	-10	-1%
O=C(Cc1nc2ccccc2[nH]1)c1ccc(Br)cc1	-35%	-1.2%	-1	?
O=[N+]([O-])c1ccc(O)c(/C=N/Nc2ccccc2Cl)c1	-36%	2.5%	-10	12%
O=C(CNS(=O)(=O)c1ccc2c(c1)OCCCO2)N1CCN(Cc2ccccc2)CC1	.	0.6%	.	0%
COc1ccccc1C1CC(=O)Nc2c1c(=O)n(C)c(=O)n2C (stereo not given)	2%	-1.2%	-4	-16%
Cn1c(=O)c2nc(NCc3ccccc3)cnc2n(C)c1=O	0%	?	0	?
C=C1CCN([C@@H](CC(C)C)C(=O)NCc2ccccc2)S(=O)(=O)c2ccccc21	.	-2.0%	.	2%
COc1cc(/C=C2/NC(=O)N(CC(=O)Nc3cccc(C)c3)C2=O)ccc1OCC(N)=O	-5%	0.8%	-5	2%
CN(c1ccccc1)S(=O)(=O)c1cccc(NC(=O)COc2cccc([N+](=O)[O-])c2)c1	.	-0.7%	.	-4%
COc1cccc(CN(C(=O)COc2ccc(C)cc2)C2CCS(=O)(=O)C2)c1 (stereo not given)	-16%	-2.2%	.	0%
O=C(O)C1C2CCC(O2)C1C(=O)NCc1ccccc1Br (stereo not given)	1%	4.1%	0	2%
CC1CCCC(N2CCN(C(=O)c3ccc(F)cc3)CC2)C1 (stereo not given)	.	-0.1%	.	5%
CC(C)(C)C(=O)NC1(C(F)(F)F)NC(=O)N(CCc2ccccc2)C1=O (stereo not given)	-10%	-0.2%	.	-6%
Cc1ccc(S(=O)(=O)Nc2nnc(C3CCCCC3)s2)cc1	-26%	1.6%	.	-2%
COc1ccccc1N1C(=S)NC2CS(=O)(=O)CC21 (stereo not given)	2%	1.7%	2	-12%
CC1(C(=O)NCc2ccc(Cl)c(Cl)c2)Oc2ccccc2NC1=O (stereo not given)	-1%	5.9%	?	5%
CC(C)(C)c1ccc(C(=O)N2CCNCC2)cc1	-8%	0.0%	-1	-20%
NC(=O)C1CCN(c2nc3c(S(=O)(=O)c4ccccc4)nnn3c3ccccc23)CC1	-12%	3.2%	.	?
O=C(COC(=O)c1ccccc1OCc1ccc(F)cc1)NCC1CCCO1 (stereo not given)	.	5.4%	.	2%
CC1CCN(c2nc(NCc3ccco3)nc(N)c2[N+](=O)[O-])CC1	-10%	-1.2%	-1	-19%
CC1=NCCN1CCNC(=O)Nc1cc(C)cc(C)c1	-3%	6.4%	0	-8%
Cc1ccc(C)c(NC(=O)Cc2coc3cc4c(cc23)CCC4)c1	-1%	6.8%	13	-11%

(further entries)
SMILES	miR-21 FLuc	Rango complex inh	GLA inh pH 4.5	Rango dissoc inh
CCOC(=O)c1nn(-c2ccc(F)cc2)c2c1CC/C2=C/c1ccccc1	-8%	-2.3%	14	-6%
CCOc1ccc(N2CC(C(=O)Nc3nnc(Cc4ccc(OC)cc4)s3)CC2=O)cc1 (stereo not given)	-1%	0.0%	.	17%
Clc1ccccc1CSc1cc2c(nn1)-c1ccccc1CC2	-59%	1.0%	5	4%
CC(C)N1CCN(Cc2cccc(-c3ccco3)c2)CC1CCO (stereo not given)	-5%	2.6%	7	?
CCC(=O)N(Cc1ccco1)c1nc(C(=O)Nc2ccc(Cl)cc2)c(C)s1	-24%	-4.8%	-3	-5%
C#CCOCCOCCOCCNc1nc(N2CCN(C(=O)CCCCCCCCCCNC(=O)[C@H](CCCCN)n3cc(CCO)nn3)CC2)nc(N2CCN(C(=O)CCCCCCCCCCNC(=O)[C@H](CCCN=C(N)N)n3cc(C[C@@H](C)CC)nn3)CC2)n1	.	65µM*	.	?
Cc1cccc(-n2c(SCC(N)=O)nnc2-c2ccco2)c1	1%	-0.6%	.	?
CCN(C(=O)COC(=O)c1n[nH]c2ccccc12)C1CCS(=O)(=O)C1 (stereo not given)	-1%	-5.0%	3	0%
CN(C)C(CNC(=O)c1ccc(S(=O)(=O)N(C)C)cc1)Cc1ccccc1 (stereo not given)	-2%	-2.3%	-3	10%
COc1cc([N+](=O)[O-])ccc1NC(=O)CN1C(=O)NC2(CCCCC2C)C1=O (stereo not given)	.	1.1%	.	-1%
COC(=O)C1CCCCN1C(=O)c1ccc2oc(C(C)C)nc2c1 (stereo not given)	-20%	1.7%	.	0%
O=C(O)CSc1nnc(-c2ccncc2)n1-c1ccc(Cl)cc1	-2%	-0.1%	4	2%
O=C(CSc1nnc(Cn2c(=O)sc3ccccc32)n1-c1ccccc1)Nc1nccs1	-1%	5.5%	4	7%
COc1ccccc1-c1c(NC(=O)c2ccco2)n(-c2ccccc2)nc(C)c1=O	0%	.	-1	.
Cn1nnnc1SCCNC(=O)C1CCC(=O)N(CCc2cccc(F)c2)C1 (stereo not given)	-7%	1.0%	.	16%
Cc1ccc(NS(=O)(=O)c2ccc3c(c2)n(C)c(=O)n3C)cc1C	8%&6%	1.9%	.	12%
COC(=O)COc1cccc(/C=N/NC(=O)CCSc2ccccc2)c1	0%	0.9%	5	-4%
O=C(Nc1ccc(N=Nc2ccccc2)cc1)c1ccc(Cl)cc1Cl	-4%	?	8	-23%
C=CCN1C(=O)C(Cc2ccc(OCC)cc2)SC1=Nc1ccc(C(=O)O)cc1 (stereo not given)	-16%	1.6%	0	27%
Cc1c(Cc2ccc3c(c2)OCO3)sc(NC(=O)C2CC2)c1C(N)=O	-1%	0.2%	0	26%
CCN(CC)S(=O)(=O)c1cccc(C(=O)OC2CC(C)OC2=O)c1 (stereo not given)	7%	0.9%	.	12%
COc1cc(OC)cc(C(=O)N[C@H](C(=O)OCC(=O)NC(=O)c2cccn2C)C(C)C)c1	-1%	-0.4%	2	4%
COc1ccc(N2CCC(N3CCN(C)C(CCO)C3)CC2)cc1 (stereo not given)	0%	0.7%	.	10%
CCOC(=O)N1CCN(C(=O)COC(=O)c2cccc(S(C)(=O)=O)c2)CC1	.	-2.6%	.	5%
CCOc1ccccc1N1C(=O)CC(Nc2ccc(N3CCOCC3)cc2)C1=O (stereo not given)	-8%	3.5%	9	1%

Gathered by group: the entries above containing bromine
SMILES	miR-21 FLuc	Rango complex inh	GLA inh pH 4.5	Rango dissoc inh
O=C(Cc1nc2ccccc2[nH]1)c1ccc(Br)cc1	-35%	-1.2%	-1	?
O=C(O)C1C2CCC(O2)C1C(=O)NCc1ccccc1Br (stereo not given)	1%	4.1%	0	2%

Single records (already shown). Order of values: miR-21 FLuc	Rango complex inh	GLA inh pH 4.5	Rango dissoc inh
`COc1cc(OC)cc(C(=O)N[C@H](C(=O)OCC(=O)NC(=O)c2cccn2C)C(C)C)c1` in the list: -1%	-0.4%	2	4%
`Cc1cccc(-n2c(SCC(N)=O)nnc2-c2ccco2)c1` in the list: 1%	-0.6%	.	?
`NC(=O)C1CCN(c2nc3c(S(=O)(=O)c4ccccc4)nnn3c3ccccc23)CC1` in the list: -12%	3.2%	.	?
`CCOC(=O)c1nn(-c2ccc(F)cc2)c2c1CC/C2=C/c1ccccc1` in the list: -8%	-2.3%	14	-6%

Remaining list, next part.
SMILES	miR-21 FLuc	Rango complex inh	GLA inh pH 4.5	Rango dissoc inh
Cc1ccc(/C=C/C(=O)O)cc1S(=O)(=O)NCCO	-3%	-1.3%	-7	0%
CCOC(=O)c1c(NC(=O)CSc2ncn[nH]2)sc(C(=O)NC)c1C	7%	-0.5%	.	-3%
Cc1noc(C)c1C1(O)CCCCCCCCCCC1	2%	-2.7%	-10	-2%
C=C1c2c(Cl)ccc(O)c2C(O)=C2C(=O)[C@]3(O)C(O)=C(C(N)=O)C(=O)[C@@H](N(C)C)[C@@H]3[C@@H](O)C12 (stereo not given in full)	.	?	.	-30%
CN(c1cccc(NC(=O)Nc2cccc(Cl)c2)c1)S(C)(=O)=O	9%	0.3%	5	-12%
Cc1cccc(NC(=O)c2ccc(-n3cncn3)c([N+](=O)[O-])c2)c1	.	0.4%	.	-8%
O=C(NCCc1c[nH]c2ccccc12)c1ccco1	-25%	0.2%	.	-16%
CCOc1cc(/C=N/NC(N)=O)cc(Br)c1OCC(=O)Nc1cccc2ccccc12	-14%	0.0%	-4	-2%
O=C(COc1coc(CN2CCN(c3ccccc3)CC2)cc1=O)Nc1cccc(F)c1	.	0.6%	.	8%
O=C(O)c1cc(S(=O)(=O)N2CC3CC3C2C(=O)O)c(Cl)cc1Cl (stereo not given)	0%	-2.8%	.	-6%
O=C(NCN1C(=O)C2C3C=CC(C3)C2C1=O)Nc1cccnc1 (stereo not given)	-1%	-2.4%	4	4%
CCCn1c(C(O)c2cc(OC)ccc2OC)nc2ccccc21 (stereo not given)	2%	-1.8%	0	8%
O=C(Nc1ccc(-c2noc(CCc3ccccc3)n2)cc1)c1cccnc1	19%	-0.1%	9	-24%
O=C(CCCCn1c(=O)c2ccccc2n(Cc2ccc(F)cc2)c1=O)NCc1ccco1	16%	-0.9%	-1	-2%
CCN(C(=O)c1c(N)cnn1C)c1ccccc1	-1%	-3.0%	4	-7%
O=C(NCCN1CCOCC1)NC1(C(F)(F)F)Oc2ccc(Cl)cc2O1 (stereo not given)	-13%	4.3%	4	4%
Cn1/c(=N/N=C/c2ccc([N+](=O)[O-])cc2)sc2ccccc21	-15%	.	-24	.
O=C(Nc1cccc(F)c1)C1CCN(C(=O)N2CCOc3ccccc32)CC1	6%	-0.6%	.	-15%
CCOC(=O)C1=C(C)NC(C)=C(C(=O)OCC)C1c1ccc(OC)cc1	2%	-3.5%	-10	-1%
Cc1cccc(-n2c(CCn3nc(C)c([N+](=O)[O-])c3C)n[nH]c2=S)c1	-5%	-1.1%	2	-19%
CC(=O)C1=C(O)C(=O)N(c2nccs2)C1c1ccc(F)cc1 (stereo not given)	-13%	?	-4	-3%
CC1CCN(C(=O)CSc2ccc(-c3ccc(F)cc3)nn2)CC1	-8%	1.2%	-2	6%
CN(c1ccccc1)S(=O)(=O)c1cccc(C(=O)NCc2ccccc2CN2CCCC2)c1	.	0.8%	.	41%
CC(C(=O)NCC1(c2ccccc2)CCCC1)N1CCOCC1 (stereo not given)	0%	-0.3%	-4	-12%
c1ccc2c(c1)Nc1nccnc1S2	-33%	?	1	-25%

The list goes on.
SMILES	miR-21 FLuc	Rango complex inh	GLA inh pH 4.5	Rango dissoc inh
COc1cccc(-c2nc(=S)c3c(n2Cc2ccco2)CCCC3)c1	-2%	-1.6%	-5	0%
Cc1ccc(-c2nnc(CSc3nc(C)nc4sc(C)c(C)c34)o2)cc1	3%	-0.5%	2	-6%
O=C(CNCc1ccccn1)N1CCc2ccccc2C1	-19%	-0.7%	2	17%
O=C(CSc1nc2[nH]ncc2c(=O)[nH]1)N1CCCCC1	-5%	-6.8%	5	-5%
CCOC(=O)c1cccc(NC(=O)C2CCC(CNc3c(N4CCOCC4)c(=O)c3=O)CC2)c1 (stereo not given)	-5%	-1.8%	-4	-3%
CCNC(=O)COc1ccc2ccccc2c1	-48%	?	-5	-10%
O=S(=O)(c1ccc(F)cc1)N1CCC(c2nc3ccccc3[nH]2)CC1	18%	0.1%	.	-9%
CC(C)(Oc1ccc(Cl)cc1)C(=O)N1CCN(C(=O)c2ccco2)CC1	-1%	-2.3%	.	6%
CC(=O)Oc1ccc(N(C(C)=O)S(=O)(=O)c2ccc3ccccc3c2)cc1Br	1%	-3.6%	.	4%
